NPYLR7 agonist: mosquito NPYLR7 agonism; HEK293T NPYLR7/Galpha15, GCaMP6s calcium fluorescence; activation, % at 10 µM; hit rate 0.15% among 270,000; AID 1259423; in the data active means activation above about 40%;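 further: 0% = vehicle and 100% = reference agonist at the receptor; some compounds past the cut are filed as inactive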
NPYLR7 agonist max-min: further read-out of NPYLR7 agonist, marked with its call; activation, %; measured here: Max-Min RFU normalised activation; some inactives read as strong as hits;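 span of the calcium signal over five minutes; 0% = vehicle and 100% = native peptide agonist; compound fluorescence can raise it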
Starred values were filed as active, the others as inactive; & = joins results of further samples. These rows are one share of the data; the hit share may differ from the screen's.

SMILES | NPYLR7 agonist | NPYLR7 agonist max-min
O=C(NCc1ncn[nH]1)[C@@]12CNC[C@@H]1CN(Cc1ccccc1)C2 | 8 | 3
Cc1nc(C)n(CCCNC(=O)c2c3c(nn2C)CCCC3)n1 | 6 | 2
Cc1cc(C)cc(OCC(=O)NNC(=O)c2c(C)cc(C)cc2C)c1 | -4 | -12
CCOC(=O)C1CCN(c2cc(Oc3cc(C)ccc3F)ncn2)CC1 | -11 | -10
Cc1ccccc1COc1cn(CC(=O)NCc2ccc(F)cc2)c(C)cc1=O | 4 | 2
Cc1ccc(OC(C)C(=O)NC(C)c2ccccc2)c(C)c1 (stereo not drawn) | 1 | -1
Nc1ccc(S(=O)(=O)Nc2ccccn2)cc1 | 1&1&-8&1 | 1&9&-10&1
Fc1ccc(NCCNCc2ccccc2)c(F)c1 | 16 | 12
C=CCNC(=O)COc1cccc2c(=O)n(CC)ccc12 | -2 | 18
CNc1ccc2cccc(Oc3ccc4cccc(O)c4n3)c2n1 | 0 | -1
Fc1ccc(-n2nnc3c(SCc4cccc(F)c4)ncnc32)cc1 | 2 | 28
Cc1ccc(Oc2cc(N3CCNCC3)ncn2)cc1 | -14 | -16
Cc1ccnc(SCc2cc(=O)c(OC(=O)c3cc4ccccc4o3)co2)n1 | -13 | -7
CCOC(=O)N1CCC(NC2CCCN(c3nc4ccccc4s3)C2)CC1 (stereo not drawn) | 7 | 5
COCCn1c(=O)c2c(nc3n(-c4cc(OC)ccc4OC)c(C)cn23)n(C)c1=O | 1 | 7
CC(=O)c1ccc2c(c1)N(Cc1ccc(F)c(Cl)c1)C(=O)C(C)S2 (stereo not drawn) | -1 | -4
CSc1ccc(C2N=C(N)Nc3nc4ccccc4n32)cc1 (stereo not drawn) | 8 | 2
O=S(=O)(c1ccc(Cl)cc1Cl)N1CCN(CCCOC(c2ccc(Cl)cc2)c2ccc(Cl)cc2)CC1 | 4 | 2
O=C(O)CCCCCn1c(=O)[nH]c2ccsc2c1=O | 0 | -2
O=C1NCC2(CCCN(C(=O)c3csc(-c4cccs4)n3)C2)O1 (stereo not drawn) | 9 | 8
CN(C)CC(C)(C)CNCC(=O)NC1CCCCCCC1 | -5 | -5
COc1ccc(-c2nn(-c3ccccc3C)cc2CN(C)Cc2nc(C)cs2)cc1F | -5 | -7
Cc1ccc(C2=NNC3(S2)C(=O)Nc2ccc(Br)cc23)cc1 (stereo not drawn) | 8 | 6
CCc1ccccc1OCCN(C)C(=O)[C@H](C)NC(C)=O | 3 | 0
CN(CCc1ccncc1)CC(=O)Nc1ccc(Cl)c(Cl)c1 | 10 | 6

SMILES | NPYLR7 agonist | NPYLR7 agonist max-min
CCCCOC(=O)CCc1c(C)n[nH]c1C | 1 | 7
CC(C(N)=O)N1CCC=C(CN(C)C(=O)/C=C/c2ccccc2)C1 (stereo not drawn) | 0 | 5
Cc1ccc(C)c(CSc2ncc(CO)n2CC(=O)NC2CC2)c1 | 10 | 6
CC(C)c1cc(C(=O)NCC2(c3ccc(F)cc3)CCOC2)n(C)n1 (stereo not drawn) | 16 | 4
Cc1ccc(CN2CCN(N=Cc3cccc(Br)c3)CC2)c(C)c1 | -2 | -5
COCC(=O)Nc1ccc(-c2nc3cc(F)ccc3n2C)cc1C | -2 | -2
COc1ccccc1-n1ncc2c(=O)[nH]c(SCc3ccccc3)nc21 | -3 | -3
CCOC(=O)C1CCCN(Cc2cn(C)nc2-c2cccc(Cl)c2)C1 (stereo not drawn) | 0&-3 | -5&-2
OC1CCCCC1N1CCN(Cc2ccccc2F)CC1 (stereo not drawn) | -4 | -3
CCOc1ccc(OCC)c(Nc2c(C(=O)N3CCSCC3)cnc3ccc(Cl)cc23)c1 | -4 | -3
CCCn1c(C2CC(=O)N(c3ccccc3OCC)C2)nc2ccccc21 (stereo not drawn) | 2 | -2
Cc1c(C(=O)O)[nH]c2c1C(=O)CC(C)(C)C2 | -5 | -6
C=c1onc(-c2ccccc2)c1=c1[nH]/c(=C\c2cccc(OC)c2)c(=O)o1 | -1 | -7
COc1ccc(N2C(=O)CSC23C(=O)Nc2ccccc23)cc1Cl (stereo not drawn) | 5 | 5
CC(Nc1nc2ccccc2s1)C(=O)N1CCSCC1 (stereo not drawn) | 5&6 | 5&4
O=[N+]([O-])c1nn(-c2ccccc2)n(O)c1=Nc1ccccc1OC(F)F | -8 | -16
CNC(=O)c1cccnc1N1CCCC(COc2ccccc2)C1 (stereo not drawn) | 2 | 0
N#Cc1c(N)cc(N)nc1SCc1ccc(Cl)c(Cl)c1 | 1 | 2
Cc1ccc(CCNC(=O)N2CC(C)OC(c3ccsc3)C2)cn1 (stereo not drawn) | 6 | 4
CC(SC1Cc2cc(Cl)ccc2Sc2ccccc21)C(N)=O (stereo not drawn) | -6 | -9
COCCOC(=O)C1=C(C)NC(=O)NC1c1ccc(O)cc1 (stereo not drawn) | 0 | -5
CN1CCCN(C(=S)Nc2cc(Cl)ccc2Cl)CC1 | -5 | -11
COc1ccc(OC)c(C(=O)Nc2cc(C)nn2-c2nc3ccccc3s2)c1 | -9 | -15
O=C1c2cccc3c(N4CCCCC4)ccc(c23)C(=O)N1CCOC(=O)C12CC3CC(CC(C3)C1)C2 | -5 | -9
Cn1c(C2c3[nH]c4ccccc4c3CCN2C/C=C/c2ccco2)nc2ccccc21 (stereo not drawn) | 5&-7 | 2&-8

Next section; the last two above are carried over.
SMILES | NPYLR7 agonist | NPYLR7 agonist max-min
O=C1c2cccc3c(N4CCCCC4)ccc(c23)C(=O)N1CCOC(=O)C12CC3CC(CC(C3)C1)C2 | -5 | -9
Cn1c(C2c3[nH]c4ccccc4c3CCN2C/C=C/c2ccco2)nc2ccccc21 (stereo not drawn) | 5&-7 | 2&-8
COCCCN1CC23C=CC(O2)C(C(=O)O)C3C1=O (stereo not drawn) | 11 | 4
c1ccc(CNCc2cn3c(-c4ccccc4)nnc3s2)cc1 | 4 | 1
O=C(c1ccc(=O)[nH]n1)N1CCC(C2CCN(Cc3cccc(F)c3F)CC2)C1 (stereo not drawn) | 11 | 4
CCOc1ccccc1N1CCN(C(=O)c2cc(-c3ccc(Cl)cc3)n(-c3ccc(F)cc3)c2C)CC1 | 13 | 11
COc1ccccc1N=c1oc2ccc3ccccc3c2cc1-c1nc2ccccc2[nH]1 | -3 | -4
Cc1cccc(N2CCN(Cn3nc(-c4ccc(F)cc4)oc3=O)CC2)c1 | -7 | -9
O=C(NC1CC1)c1cnn(-c2cccc(F)c2)c1C(F)(F)F | 28 | 23
COc1nc(OC)nc(-c2ccc(OC)c(OC)c2OC)n1 | 1 | 1
CCCCc1nc2cc(C(=O)N3CCN(c4nc(C)cnc4C)CC3)ccc2o1 | 5 | 2
N#Cc1cc2c(=O)n3ccccc3nc2n(CCN2CCOCC2)c1=O | 0 | -2
CC(=O)c1ccc(N2CCN(C(=O)C3CC=CCC3C(=O)N3CCN(c4ccccn4)CC3)CC2)cc1 (stereo not drawn) | -3 | -9
O=c1c2cc(NCc3c(F)cccc3Cl)ccc2nc2n1CCC2 | 8 | 3
C=CCNC(=O)c1ccc(NC(=O)NCc2ccccn2)cc1 | 0 | 9
C=C(C)Cn1c(=O)c2c(nc3oc(C)c(C)n32)n(C)c1=O | 8 | 10
CCn1cc(C(CC(=O)NCCN(C)C)c2ccc(F)cc2)c2ccccc21 (stereo not drawn) | -3 | 6
CCCN(CCC)CCSc1nc(O)c(C(C)C)c(=O)[nH]1 | 4 | -2
CSc1nc2nc(C)c(CCC(=O)NC(C)c3ccc(F)c(F)c3)c(C)n2n1 (stereo not drawn) | 3 | 3
COc1ccccc1OCC(=O)NC1CC(C)(C)Cc2c1cnn2-c1cccc(F)c1 (stereo not drawn) | 3 | -5
COC(=O)CN1C(=O)[C@H](CC(C)C)NC12CCN(C(=O)C1CCc3ccccc3C1)CC2 (stereo partly drawn) | 0 | 14
CC(C)[C@@H]1C[C@@H]2C[C@H](N(CC(=O)O)C(=O)COc3ccccc3)C[C@@H]2CO1 | -5 | 5
Cc1cccc(C)c1NC(=O)CN(CC(=O)Nc1c(C)cccc1C)Cc1nc(CC(C)C)no1 | 9 | 6
Cc1ncoc1C(=O)N1CCC(Oc2cccc(C(=O)NCc3cccnc3)c2)CC1 | 9 | 2
Cc1ccc2nc(C)cc(C(=O)N(C)CCO)c2c1 | -1 | -2
CCCn1cc(C(=O)Nc2nc(C)cs2)c2nn(-c3ccccc3)c(=O)c-2c1 | 8 | 6
Cc1nc(NC(=O)CCc2ccc(Br)cc2)n[nH]1 | 2&-2 | 1&-2

SMILES | NPYLR7 agonist | NPYLR7 agonist max-min
CC(c1cccc(-c2ncccc2F)c1)N(C)C (stereo not drawn) | 8 | 2
CC(C)Cc1ncc2c(n1)CN(C(=O)CCC(=O)N1CCCCCC1)C2 | 16 | 10
Cc1cccc(Cn2c(CCN)n[nH]c2=O)c1 | 6 | 5
CCc1nnc(CN(C(=O)Cc2c(C)[nH]c3c(F)cccc23)C(C)C)o1 | 14 | 12
CCn1nc(C(=O)OC(C(=O)NC(=O)NC)c2ccccc2)c2ccccc2c1=O (stereo not drawn) | -2 | -4
COc1ccc(CCN(Cc2ccc(C)s2)C(=O)CN(CC2CCCO2)C(=O)Nc2ccc(Cl)c(Cl)c2)cc1OC (stereo not drawn) | -1 | -10
C=CCN=c1scc(-c2ccccc2F)n1N=Cc1cc2c(cc1[N+](=O)[O-])OCO2 | 0 | -12
CC(C)CC(=O)N1CCN(c2ccc(F)cc2)C(=O)C1C (stereo not drawn) | 1 | 3
COCCN1CCN(Cc2cn(Cc3ccccc3)nc2-c2cc3ccccc3o2)CC1 | 1 | -4
COc1ccc(N2CCN(C3CCCN(C(=O)/C=C/c4cccs4)C3)CC2)cc1 (stereo not drawn) | 9 | 2
COc1cc(OC)nc(C(NC(=O)C2CCN(CCCc3ccccc3)CC2)c2ccc(F)cc2)n1 (stereo not drawn) | -9 | -2
O=C(NCCc1cccs1)C1=Cc2cc(Br)ccc2OC1 | -2 | -3
Nc1ccc2[nH]c3ccccc3c2c1 | -5 | 2
CC(C)CN(Cc1cccc(OS(=O)(=O)c2cccc(C(F)(F)F)c2)c1)C(=O)C1C[C@H]1c1ccccc1 (stereo partly drawn) | 2 | -3
N#Cc1ccc(CSc2ncc(C#N)c(N)n2)cc1 | -8 | -11
COc1cc(OC)cc(C(=O)N(C2CCCC2)C2CCS(=O)(=O)C2)c1 (stereo not drawn) | -6 | -8
Cc1onc(-c2ccccc2)c1C(=O)NCC1CCCO1 (stereo not drawn) | 4 | 4
Cc1ccc(S(=O)(=O)Nc2ccc(NC(=O)C3CC(=O)N(Cc4cccs4)C3)cc2)cc1 (stereo not drawn) | 4 | 6
COc1cccc(NC(=O)C2(C)CCN2C(=O)c2sccc2C)c1 (stereo not drawn) | 11 | 8
COc1cc(Cn2nc(C(C)C)c3cnn(-c4ccc(F)cc4)c3c2=O)cc(OC)c1 | -3 | -1
COc1ccc(NC(=S)N(C)C(C)c2ccc(S(C)(=O)=O)cc2)cc1 (stereo not drawn) | 9 | 7
COc1ccc(OC)c(CNC(=O)Nc2nc(C)ns2)c1 | 29 | 17
COc1ccc(-n2nnnc2CN2CCN(S(=O)(=O)c3cc(C)ccc3C)CC2)cc1 | 0 | -1
NC1(C(=O)NCc2ccc3nonc3c2)CC1 | 16 | 17
COCc1cc(N(C)Cc2ccccc2)nc(SCc2cccc(C(=O)O)c2)n1 | 12 | 18

SMILES | NPYLR7 agonist | NPYLR7 agonist max-min
CN(C)c1ccccc1CN1CCCN(Cc2ccccc2N(C)C)C1c1ccncc1 | 24 | 7
CC(C)CN(Cc1ccc(OS(C)(=O)=O)cc1)C(=O)c1cccc(C(F)(F)F)c1 | 12 | 15
O=C(Cc1cn2ccsc2n1)NN=C1CCCCC1C1CCCCC1 (stereo not drawn) | -9 | -18
CC(C)(C)c1ccc(CC(=O)N2CCC2(C)C(=O)Nc2cc(C(C)(C)C)on2)cc1 (stereo not drawn) | 6 | 0
Cc1cc(C(=O)Nc2cc3c(cc2Br)OCCO3)no1 | 3 | 4
Cc1ccc(C(=O)Nc2ccc(N3CCN(C(=O)c4ccc(N(C)C)cc4)CC3)nc2)cc1 | -4 | 8
CCc1cc(-n2cnc3c(C)ncnc32)ccc1NC(C)=O | 12 | 11
Cn1ccnc1CN(CCO)C(=O)c1cnc2ccccn12 | 28 | 11
CCSc1nc(CC(=O)N(CC)C2CCOC(C)(C)C2)cs1 (stereo not drawn) | -2 | 0
Cn1ncc(N2CCCC2c2ccsc2)c(Br)c1=O (stereo not drawn) | -6 | -7
CC1CN(c2ccc(C(=O)NC(c3ccccc3)c3ccc(Cl)cc3)cn2)CCN1 (stereo not drawn) | 6 | 9
C=CCn1c(=NC(=O)c2ccccc2Br)sc2cc(S(C)(=O)=O)ccc21 | 3 | -2
COc1ccccc1CN(C)Cc1nc2cc(Cl)ccc2c(=O)[nH]1 | -3 | -6
Cc1nnsc1C(=O)NC(C)c1cnn(-c2cccc3ccccc23)c1C (stereo not drawn) | 15 | 5
O=C(CSc1nnc(C2CC2)n1C1CC1)N1CCN(c2ncccn2)CC1 | 0 | 3
Cc1c(Cl)ccc2c1N(C(=O)c1ccn(C)c(=O)c1)CCC2 | 11 | 6
CC(=O)Nc1ccc(S(=O)(=O)Nc2cc(C)c(-n3nc4ccccc4n3)cc2O)cc1 | 15 | 4
CCO[C@H]1COC[C@@H]1NC(=O)Cc1nc(C)sc1C | 23 | 10
CC(=O)Nc1ccc(S(=O)(=O)N2CCN(c3nc(Cc4ccccc4)nc4sc5c(c34)CCC(C)C5)CC2)cc1 (stereo not drawn) | -9 | 4
CCN1C(=O)/C(=C2\SC(=S)N(NC(=O)c3cccnc3)C2=O)c2ccccc21 | 16 | 18

Taken from above.
O=C(Cc1cn2ccsc2n1)NN=C1CCCCC1C1CCCCC1 (stereo not drawn) in NPYLR7 agonist shows -9
Cc1nnsc1C(=O)NC(C)c1cnn(-c2cccc3ccccc23)c1C (stereo not drawn) in NPYLR7 agonist shows 15
C=CCn1c(=NC(=O)c2ccccc2Br)sc2cc(S(C)(=O)=O)ccc21 in NPYLR7 agonist max-min shows -2
CCSc1nc(CC(=O)N(CC)C2CCOC(C)(C)C2)cs1 (stereo not drawn) in NPYLR7 agonist shows -2
Cc1cc(C(=O)Nc2cc3c(cc2Br)OCCO3)no1 in NPYLR7 agonist shows 3
